# LANA-nucl inh: LANA-nucleosome interaction inhibition; z-score (test concentration not listed); AID 720717; hit rate 0.3% among 51,000; FITC-LANA1-23 / chicken nucleosome fluorescence polarization; hits give low values;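 active = both repeat wells score below -2 in polarization z-score versus plate sample wells, excluding overly bright wells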;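 also: 100 nL library stock added to about 30 µL; numbers are from one replicate; some results filed as inactive read as strong as hits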
#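 Test system: purified chicken nucleosomes with FITC-labelled LANA N-terminal peptide (1-23); Input: 240 nM purified chicken nucleosomes (480 nM peptide binding sites), final; Medium: TEN-BT buffer, pH 7.5; Timing: 10–45 min, room temperature; Technique: fluorescence polarization, 480 nm excitation, 535 nm parallel and perpendicular emission; Replication: duplicates.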
# Ab BasE inh: inhibitors of Acinetobacter baumannii siderophore enzyme BasE; purified BasE, fluorescence polarization binding displacement; inhibition, % (concentration not given with the values); hit rate 0.1% among 84,000;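 active = both replicates above 25% with normal brightness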;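 also: 0% = negative plate control signal and 100% = positive plate control signal; stock transfer was 100 nL into about 30 µL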
# The depositor's hits bear a star; nt = no result given; & = joins results of further samples. Not all compounds are listed. The share of hits here may be higher or lower than overall.
SMILES,LANA-nucl inh,Ab BasE inh
CCN1CCCC1CN(Cc1cc2cc(OC)ccc2[nH]c1=O)C(=O)Nc1ccccc1 (stereo not given),1.06,-0.9
Cc1cccc(Oc2coc3cc(OC(=O)c4ccc(F)cc4)ccc3c2=O)c1,nt,1.9
O=C1CS/C(=N/c2ccccn2)N1C1CCCCC1,nt,3.2
Cc1cccc(C)c1-n1c(C2CC3CCC2O3)n[nH]c1=S (stereo not given),nt,3.0
CC(=O)NCc1ccc(C(=O)COC(=O)CCc2c[nH]c3ccccc23)o1,nt,-2.2
O=C1CCCN1CCCn1cnc2c([nH]c3ccccc32)c1=O,0.133,-2.5
CCOC(=O)c1c(-c2ccccc2)oc2cc(Br)c(O)cc12,-0.264,-1.4
CCN(CC)c1ccc(-c2nocc2C#N)cc1,1.67,-8.3
O=C(c1ccccc1)c1cncc(Br)c1,0.269,3.1
CC(=O)N(Nc1ccccc1)c1ccccc1,nt,0.7
CCOC(=O)c1nn(-c2ccc(F)cc2)c(=O)cc1OCC(=O)NC1CCCC1,-0.393,-0.6
CC1CCN(C(=O)Cn2ncc3c4ccccc4n(Cc4ccccc4)c3c2=O)CC1,0.361,2.7
Cc1ccc(Nc2nc(C)cc(C)c2C(N)=O)cc1,nt,0.8
CCN1C(=O)/C(=C2\SC(=S)N(c3cccc(Cl)c3)C2=O)c2ccccc21,nt,1.1
Cc1cc2occ(CC(=O)OCc3nc4ccccc4c(=O)n3CC#N)c2cc1C,nt,3.5
O=C(c1ccccc1)c1ccccc1C(=O)c1ccccc1,nt,0.8
CCC(=O)Nc1nc(-c2ccc3c(c2)CCN3C(C)=O)cs1,-0.68,3.7
CCCCCc1nn2cc(-c3cccc(OC)c3)nc2s1,-0.515,-2.9
CCN(CC(=O)Nc1ccc2c(c1)OCCO2)C(=O)c1cc(Cl)ccc1O,nt,-3.1
COC(=O)c1cc(=O)n2c(c1C(=O)c1cccs1)SCC2,0.244,-1.9
CCN(CC)S(=O)(=O)c1ccc(N(C(=O)Cn2nnc3ccccc32)C(C(=O)NC2CCCC2)c2ccco2)cc1 (stereo not given),0.49,-1.1
Cc1cc(C(=O)OC(C)C)ccc1-c1ccc(C=C(C#N)C#N)o1,-1.09,-2.6
O=C(O)c1nn(CN2CCN(c3ccccc3F)CC2)c2ccccc12,nt,-0.6
CCc1nc(C)cc(CN(C)C)c1O,0.768,2.5
S=C1NCN(C2CCCC2)CN1,0.46,0.4
COC(=O)C1=CNC=C(C(=O)OC)C1c1ccc(Cl)cc1,0.369,0.6
Cc1cc2ncc(C(N)=O)cn2n1,0.263,nt
Fc1ccc(-c2cc(-c3nnco3)[nH]n2)cc1,-1.4,0.2
Fc1ccc(C=Nc2ccc3c(c2)OCO3)cc1,nt,-2.3
CC(C)C(NC(=O)Cc1cccc2ccccc12)C(=O)N1CCN(c2ncccn2)CC1 (stereo not given),nt,-1.8
CCOC(=O)CSc1nc2ncccc2c(=O)n1Cc1ccccc1,-0.399,0.5
CC(C)(C)C(O)(CC#CCN1CCCC1)c1ccccc1 (stereo not given),nt,-0.1
CC(C)Nc1nnc(SCC(=O)Nc2c(C#N)oc3ccccc23)s1,nt,1.8
Cn1cccc1CNCc1ccccn1,0.233,1.2
CO/N=C1\CN(c2nc3c(cc2F)c(=O)c(C(=O)O)cn3C2CC2)CC1CN (stereo not given),-0.733&0.0265,-0.6
CC(C)(C)C(=O)CSc1nc2ccccc2c(=O)n1CC1CC1,nt,-0.3
COc1cc(/C=N/NC(=O)c2sc(N)nc2C)ccc1O,-0.411,23.9
O=C(CCCN1C(=O)C(c2ccccc2)Oc2cccnc21)N1CCc2ccccc21 (stereo not given),-0.0745,-1.7
Cc1ccc(Nc2nc(N)nc(COc3ccccc3C#N)n2)cc1,nt,-5.4
COc1ccc(C2CC(c3ccccc3)=NN2C(=O)COC(=O)c2ccco2)cc1 (stereo not given),nt,-1.2
CN(C)CCOC(=O)COc1ccc(Cl)cc1,-0.033&-0.135,-1.6&-1.6
COc1ccc(/C=C2\CC/C(=C\c3ccc(Cl)cc3)C2=O)cc1,nt,2.1
CCN1CCC(=NN2CCOCC2)CC1,nt,1.1
CCOC(=O)Cc1c(C)nc(Cc2ccc(OC(C)C)cc2)[nH]c1=O,nt,-2.0
Cn1ccnc1-c1nc2ccccc2n(CC(=O)O)c1=O,nt,1.2
COC(=O)C1=C(C)N(Cc2ccc(C)cc2)C(=O)/C1=C\c1ccccc1O,nt,1.8
CS(=O)(=O)N1CCCC(C(=O)N2CCN(c3ccc(F)cc3)CC2)C1 (stereo not given),-0.577,1.1
NC(=O)CSc1nnc(C2CC2)n1C1CC1,nt,3.2

# A different layout for part of the listing above.
CCCCCc1nn2cc(-c3cccc(OC)c3)nc2s1
  LANA-nucl inh = -0.515	Ab BasE inh = -2.9
COc1ccc(/C=C2\CC/C(=C\c3ccc(Cl)cc3)C2=O)cc1
  LANA-nucl inh = nt	Ab BasE inh = 2.1

# Following part
SMILES,LANA-nucl inh,Ab BasE inh
O=C(NCC12CC3CC(C1)CC(CNC(=O)N1CCCC1)(C3)C2)N1CCCC1,-0.476,0.3
CCS(=O)(=O)c1ccc2oc(SCC(=O)CSc3nc4cc(S(=O)(=O)CC)ccc4o3)nc2c1,nt,-2.6
O=C1/C(=C\c2ccccn2)CN(Cc2ccccc2)C/C1=C\c1ccccn1,nt,1.6
Cc1cc(NC(=O)CSc2nnc(-c3cccs3)n2C)no1,-0.511,3.0
CCN(Cc1ccccc1)C(c1cccnc1)c1nnnn1Cc1ccccc1 (stereo not given),0.351,-0.2
O=C(Cn1nnc2ccccc2c1=O)NC(=O)Nc1ccccc1F,nt,-0.7
O=S1(=O)CCC(Nc2ncnc3cc(-c4ccc(F)cc4)sc23)C1 (stereo not given),nt,-4.0
CSc1nn2c(=O)c(Cc3ccccc3)nnc2s1,0.263,-1.2
Cc1cccc(Nc2cc(=O)[nH]c(=O)[nH]2)c1,1.46,-3.1
CC(=O)Nc1ccc2c(c1)nc1n2CCN(c2ccccc2)C1,0.048,-3.0
Cc1cc(=O)n2nc(N(C)CC(=O)NC3CCCc4ccccc43)sc2n1 (stereo not given),-2.26*,-0.5
CCOc1ccc2nc(Cl)c(CN(Cc3ccco3)C(=O)C3CC3)cc2c1,0.045,4.5
COc1cc(/C=N/S(=O)(=O)c2ccc(Br)cc2)cc(OC)c1O,nt,1.1
COc1ccc2[nH]cc(NC(=O)N3CCN(C(=O)OC(C)(C)C)CC3)c(=O)c2c1,-0.442,-0.8
C=CCn1c(SCC(=O)OC(C)(C)C)nc2scc(-c3ccco3)c2c1=O,nt,-2.0
O=S(=O)(c1cnc[nH]1)N1CCN(Cc2ccccc2)CC1,-0.596,1.9
CSc1ncnc2c1nnn2Cc1ccccc1Cl,-0.103,0.3
CC(C)CNS(=O)(=O)c1ccc(S(=O)(=O)N2CCCC(C(=O)NC3CCCCC3)C2)cc1 (stereo not given),1.48,-0.6
Cc1ccc(N2C(=O)/C(=C\c3ccc4c(c3)OCO4)N=C2SC2CCOC2=O)cc1 (stereo not given),nt,-0.3
COc1ccc(NC(=O)Cn2nnc(C(=O)Nc3ccc(OC)c(OC)c3)c2N)cc1,nt,2.6
O=C(OCc1ccc(Cl)cc1)c1ccc2c(c1)C(=O)N(CCCN1CCOCC1)C2=O,nt,-0.4
CC(=O)N1CCN(C(=S)c2ccc(C(C)(C)C)cc2)CC1,-1.12,0.4
CCCN(Cc1nnc(-c2ccccc2Cl)o1)C(=S)NC1CCCCC1,nt,1.2
CC(C)N1CC(=O)N(c2ccc(F)c(Cl)c2)C1=S,nt,1.1
COc1cc2c3cc1Oc1c(OC)c(OC)cc4c1[C@@H](Cc1ccc(OC(=O)c5ccc([N+](=O)[O-])cc5)c(c1)Oc1ccc(cc1)C[C@@H]3N(C)CC2)N(C)CC4,-0.575,2.1
N#Cc1ccc(NC(=O)c2cc(=O)c3ccccc3o2)cc1,nt,0.6
NS(=O)(=O)c1ccc(CCNC(=O)C2CCCC2)cc1,nt,1.6
O=C(NCc1ccco1)c1ccc(S(=O)(=O)NCC2CCCCC2)cc1,0.18,5.7
O=c1[nH]c2c(=O)oc3ccccc3c2n(C2CCCCC2)c1=O,0.387,-0.3
O=C(Cn1nc(-c2ccco2)ccc1=O)NCc1ccco1,-1.14,1.9
Cc1c(NC(=O)NCCCN2CCOCC2)sc2nc3n(c(=O)c12)CCC(C)CC3 (stereo not given),-0.374,-0.4
COc1ccc2[nH]c(=O)c(CN(C3CCCC3)S(=O)(=O)c3cccc4nsnc34)cc2c1,0.05,1.2
COc1ccc(-c2csc(N)n2)cc1F,nt,1.9
CCOC(=O)c1cnc2ccccc2c1Nc1ccc(OC)cc1,-0.038,-0.1
Cc1cc(C)c2c(n1)SCC(=O)N2CCCC(=O)NCc1ccccc1,-0.903,1.1
Cc1noc(C)c1NC(=O)Nc1ccc(N(C)C)cc1,1.47,-3.8
Clc1ccc(CN2CCN(/N=C/C=C/c3ccco3)CC2)cc1,nt,-0.1
O=C(CSc1nnc(-c2ccc3c(c2)OCO3)o1)N1N=C(c2cccs2)CC1c1ccco1 (stereo not given),nt,-1.2
CC(Sc1nnc(CC(=O)Nc2ccccc2F)n1C)C(=O)Nc1ccc2c(c1)OCO2 (stereo not given),0.15,-1.6
CCN(Cc1ccccc1)C(=O)CSc1nc2ccncc2[nH]1,-1.45,-2.4
Cc1nc(SCc2ncc(-c3ccccc3)o2)c2ccccc2n1,nt,-1.6
O=C1Nc2nc(=O)nc3[nH]c(=O)nc(n23)N1,0.231,0.3
N#CCOC(=O)CCc1nc2ccccc2s1,nt,-1.2
COC(=O)c1ccc(OCC(=O)Nc2ccccc2C(=O)NC2CC2)cc1,nt,-2.1
O=C(c1cnc2ccccc2n1)N1CCN(c2cccc(Cl)c2)CC1,-1.65,nt
CSC(=NC(C)C)NC#N,-0.309,-1.2
N#Cc1ccccc1CSc1nc2ccccc2c(=O)n1CCCC(=O)NCc1ccco1,2.06,-5.2
Cc1cc(/C=c2\sc3nc4ccccc4n3c2=O)c(C)n1-c1cccnc1,0.772,1.1
NS(=O)(=O)c1ccc(CCNC(=O)CSc2nc3ccc(Cl)cc3o2)cc1,nt,0.1
O=C(C1CC1)N1CCN=C1SCc1ccc(C(F)(F)F)cc1,-0.507,0.2
Cc1ccccc1C(=O)N1CCC(C(=O)OCc2ccccn2)CC1,nt,0.6
O=S(=O)(c1ccccc1)N(Cc1ccccn1)Cc1ccccn1,-1.48,nt
O=C1c2ccccc2C(=O)N1CCCn1ccnc1,0.421,2.6
CC(=O)Oc1ccc2cc(-c3ccc4c(c3)OCCO4)c(=O)oc2c1,-0.48,2.1
O=C(O)c1ccccc1C(=O)OCc1ccccc1,nt,0.7
COc1ccc(N2C(=O)CC(Cc3ccccc3)C2=O)cc1 (stereo not given),nt,2.6
NC(=O)NC(=O)CSc1n[nH]c(-c2cccs2)n1,nt,-0.4
Clc1ccc2c(Sc3nncn3-c3ccccc3)ccnc2c1,nt,-6.0
CCc1c(O)c(Cc2ccccc2)c(=O)n(-c2nccs2)c1-c1ccccc1,nt,1.6
CCc1ccc2c(CC(=O)N3CCN(S(=O)(=O)c4ccc5c(c4)OCCO5)CC3)coc2c1,nt,-1.4

# Among those listed so far, these have bromine.
SMILES,LANA-nucl inh,Ab BasE inh
CCOC(=O)c1c(-c2ccccc2)oc2cc(Br)c(O)cc12,-0.264,-1.4
O=C(c1ccccc1)c1cncc(Br)c1,0.269,3.1
COc1cc(/C=N/S(=O)(=O)c2ccc(Br)cc2)cc(OC)c1O,nt,1.1

# The listing picks up; the three compounds before the break are reprinted first.
SMILES,LANA-nucl inh,Ab BasE inh
Clc1ccc2c(Sc3nncn3-c3ccccc3)ccnc2c1,nt,-6.0
CCc1c(O)c(Cc2ccccc2)c(=O)n(-c2nccs2)c1-c1ccccc1,nt,1.6
CCc1ccc2c(CC(=O)N3CCN(S(=O)(=O)c4ccc5c(c4)OCCO5)CC3)coc2c1,nt,-1.4
c1ccc2nc3c(nc2c1)oc1ccccc13,nt,1.9
O=C(O)Cc1cc2c(cc1Br)OCCO2,nt,1.0
O=C(NCCCSc1ccccn1)Nc1nccs1,0.0305,0.7
O=c1cc(O)n(Cc2ccco2)c(=S)[nH]1,nt,0.4
CSc1ccc(C2N=C(c3ccccc3)NO2)cc1 (stereo not given),nt,0.8
CNCc1ccc(C)cc1C,nt,1.6
CCOC(=O)N1CCN(C(=S)Nc2ccc(OC(F)F)cc2)CC1,nt,-1.7
Cc1ccccc1C1C(C#N)=C(N)NC(S)=C1C#N (stereo not given),-1,-0.4
CCOC(=O)C1CCCN(C(=O)Cn2nc(C)n3nc(-c4ccc(OC)cc4)cc3c2=O)C1 (stereo not given),-0.182,1.1
C=CCNC(=O)c1ccccc1NC(=O)CC,-0.128,2.0
CCOC(=O)c1[nH]c(=O)[nH]c1COC(=O)c1cc2ccccc2o1,-0.031,-2.7
CCC(C)NC(=O)c1ccccc1NC(=O)C1=CSCCO1 (stereo not given),-0.591,-0.1
O=C(O)c1cc(C23CC4CC(CC(C4)C2)C3)ccc1O,nt,0.7
COc1ccc(-c2nn(CN3CCC(C(N)=O)CC3)c(=S)n2-c2ccccc2)cc1OC,-0.13,-2.1
COc1cc(Cl)c(C)cc1NCC(=O)N1CCOCC1,nt,1.3
CC(C(=O)NCc1ccccc1)N1CCc2ccccc2C1 (stereo not given),nt,0.6
O=C(NCN1CCN(CNC(=O)c2ccccc2)CC1)c1ccccc1,-0.501,1.7

# Complete entries, quoted from the list. Values in the order: LANA-nucl inh, Ab BasE inh
# O=C(NCN1CCN(CNC(=O)c2ccccc2)CC1)c1ccccc1 is entered as -0.501, 1.7
# O=C(O)c1cc(C23CC4CC(CC(C4)C2)C3)ccc1O is entered as nt, 0.7

# High-throughput results: PubChem, ICCB-Longwood Screening Facility, Harvard Medical School
